# TRPV1 PAM: HTS Assay for Compounds that Act as Potentiators of the Vanilloid Receptor 1; Transient receptor potential cation channel subfamily V member 1 (Homo sapiens), Q8NER1; TRPV1-expressing cells, Fluo-8 calcium influx, capsaicin EC20 potentiation; host cell line not named in the record; control for the full effect not named in the record; potentiation, % at 8.33 µM; 0.02% of 320,000 active; AID 540277, 2011; active means potentiation above 80%; inconclusive means 30% to 80%; inactive means below 30%; note: 0% is about no effect
# Target sequence (Q8NER1 whole entry, looked up): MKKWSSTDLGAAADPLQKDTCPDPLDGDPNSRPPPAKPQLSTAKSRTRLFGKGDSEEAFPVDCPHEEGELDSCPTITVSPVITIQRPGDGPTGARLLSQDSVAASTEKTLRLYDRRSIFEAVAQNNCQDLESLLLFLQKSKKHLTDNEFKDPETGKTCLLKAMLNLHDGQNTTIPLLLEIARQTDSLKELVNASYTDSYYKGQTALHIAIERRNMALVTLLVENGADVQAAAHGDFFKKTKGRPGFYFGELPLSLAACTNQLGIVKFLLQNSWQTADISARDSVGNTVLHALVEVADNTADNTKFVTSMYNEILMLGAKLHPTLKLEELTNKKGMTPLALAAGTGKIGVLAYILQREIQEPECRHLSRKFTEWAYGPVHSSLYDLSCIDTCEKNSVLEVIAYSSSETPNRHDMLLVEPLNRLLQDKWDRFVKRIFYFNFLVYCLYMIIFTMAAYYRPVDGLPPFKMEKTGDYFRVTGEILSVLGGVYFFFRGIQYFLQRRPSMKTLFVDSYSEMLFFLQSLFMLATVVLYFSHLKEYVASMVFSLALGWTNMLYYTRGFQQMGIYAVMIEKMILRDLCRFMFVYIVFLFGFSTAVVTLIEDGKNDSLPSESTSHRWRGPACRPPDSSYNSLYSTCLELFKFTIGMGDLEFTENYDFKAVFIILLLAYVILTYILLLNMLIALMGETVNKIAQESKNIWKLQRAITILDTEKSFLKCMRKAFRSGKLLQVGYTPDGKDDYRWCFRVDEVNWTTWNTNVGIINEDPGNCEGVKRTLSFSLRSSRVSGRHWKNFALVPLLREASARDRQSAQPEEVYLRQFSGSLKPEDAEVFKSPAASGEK
#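 Cells expressing TRPV1 were dye-loaded with Fluo-8 and read kinetically: 10 s baseline, 3 min after compound (agonist portion), then 2 min after EC20 capsaicin (allosteric enhancer portion). Calcium-bound dye fluorescence at 480/520 nm.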
# Sfp inh: qHTS Assay for Inhibitors of Bacillus subtilis Sfp phosphopantetheinyl transferase (PPTase) | 4'-phosphopantetheinyl transferase ffp (Bacillus subtilis), Q9F4F7 | Biochemical Sfp PPTase activity, qHTS | Potency, µM, without a hit: max response, negative = inhibition, actives largely listed as inhibitors | 3.5% of 310,000 active | AID 1490, 2009; active = well fitted inhibition curve with a large enough effect; inconclusive = small, poorly fitted or top-dose-only effect, or another doubt; inactive = no such curve, though single readings can be large or run the other way;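 note: the enzyme is Sfp with the accession as filed and its product quenches rhodamine fluorescence; potency is the fitted concentration of half-maximal effect; 0% = enzyme reaction without inhibitor and -100% = no enzyme wells; top concentration of the series not given in the record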
#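 After 15 min at room temperature with compound, 15 nM Sfp received 5 uM rhodamine-CoA plus 12.5 uM BHQ-2-ybbR (50 mM Hepes pH 7.6, 10 mM MgCl2). Rate came from the fluorescence difference over 30 min, ex 525/em 598 nm.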
# Menin MLL FP FL: qHTS Assay for Inhibitors Targeting the Menin-MLL Interaction in MLL Related Leukemias: Competition With Fluorescein Labeled MLL-derived Peptide | 290,000 tested, under 10 active | FP activity change, % at 61.4 µM | Fluorescence polarization, fluorescein-MLL peptide displacement from menin | AID 1766, 2009; inconclusive = falling polarisation curve, or a change in total fluorescence; inactive = total fluorescence flat and polarisation flat or rising; no compound was filed as active; the % refers to the polarisation; negative = inhibition;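 note: % of control where 0% means no effect; inhibitors lower the polarisation; unlabelled MLL peptide was the positive control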
# gsp agonist: qHTS for Agonist of gsp, the Etiologic Mutation Responsible for Fibrous Dysplasia/McCune-Albright Syndrome: qHTS | gsp mutant cells, cAMP HTRF, 30 min; control for the full effect not named in the record | Potency, µM (top dose mostly 76.9 µM), for the others: at the top dose activation (cAMP increase), most hits filed as activators | 0.13% of 340,000 active; active = well fitted activation curve with a large enough effect; inconclusive = small, poorly fitted or top-dose-only effect, or another doubt; inactive = no such curve, though single readings can be large or run the other way; cell line not stated here;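 note: phosphodiesterase inhibitor Ro 20-1724 added with compounds to block cAMP breakdown; potency is the fitted concentration of half-maximal effect; nearly all actives have a fitted effect of over 60% in size; about a fifth of the inactives were tested at one dose only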
#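 Cells in DMEM/10% FBS with G418 were pretreated with compounds in DMSO plus […] (300 uM stock) for 30 min at 37C. cAMP was measured by HTRF (cAMP-d2 plus anti-cAMP antibody-K) after 30 min at room temperature.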
# gsp antagonist: qHTS for Antagonists of gsp, the Etiologic Mutation Responsible for Fibrous Dysplasia/McCune-Albright Syndrome: qHTS; gsp-mutant cells, cAMP HTRF, 30 min; control for the full effect not named in the record; Potency, µM (doses to about 76.9 µM), without a hit: at the highest dose activity change, negative = inhibition, usual class: inhibitors; 0.4% of 340,000 active; active = falling curve of any shape with a large fitted effect; inconclusive = falling curve, mostly with a smaller effect; inactive = flat or rising curve; cell line not stated here;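 note: intracellular cAMP measured with PDE inhibitor Ro 20-1724 present during compound exposure; potency is the fitted concentration of half-maximal effect; % is set by controls: 0 for no effect and ±100 for the full control effect; nearly all actives have a fitted effect of over 65% in size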
#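 Cells in G418 medium, seeded 16-24 h, 37C; buffer exchange to DPBS + 1 mM CaCl2, 0.5 mM MgCl2, 0.05% BSA; cpds in DMSO + […] (300 uM stock), 30 min 37C; HTRF cAMP detection.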
# CtBP-E1A blk: qHTS Assay for Inhibitors of the CtBP/E1A Interaction; 0.49% of 340,000 active; AID 651724, 2012; AlphaScreen GST-E1A/His-CtBP binding, 1536-well; stronger effect = lower value; control for the full effect not named in the record; activity change, % (no concentration beside the values); in the data active means activity change below about -65%; inconclusive means about -30% to -65%; inactive means above about -30%; note: % is set by controls: 0 for no effect and ±100 for the full control effect; compound concentration not given in the record
#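 GST-E1A and His-tagged CtBP (125 nM each as 5X stock) were preincubated with pin-transferred compound for 2 h at 37 °C in the dark, then glutathione donor and nickel acceptor beads were added for 1 h before AlphaScreen reading.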
# ClpP mod: qHTS Assay for Activators of ClpP | ATP-dependent Clp protease proteolytic subunit (Bacillus subtilis (strain 168)), P80244 | purified B. subtilis ClpP, FRET peptide cleavage, 20 min | Potency, µM (series often up to 57.5 µM), without a hit: at the highest dose activity change, negative = active | 1.9% of 340,000 active | AID 651965, 2013; active = well fitted falling curve with a large enough effect; inconclusive = small, poorly fitted or top-dose-only effect; inactive = no such curve, though single readings can be large or run the other way; note: potency is the fitted concentration of half-maximal effect; the source files actives as falling curves though it sought activators and does not explain the sign; nearly all actives have a fitted effect of over 65% in size; many hits overshoot -100%
# Target sequence (P80244 whole entry, looked up): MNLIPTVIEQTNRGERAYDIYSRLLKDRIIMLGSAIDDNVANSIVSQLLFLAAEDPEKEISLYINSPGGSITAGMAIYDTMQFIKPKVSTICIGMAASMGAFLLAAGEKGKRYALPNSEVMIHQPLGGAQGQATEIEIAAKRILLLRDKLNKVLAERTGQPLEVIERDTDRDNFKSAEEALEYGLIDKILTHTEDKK
#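 FRET quenching reversal measured ClpP activation: 10 microg/mL B. subtilis ClpP at pH 8 with the FRET-FV decapeptide, read at 430 nm after 320 nm excitation. The 20-min minus 0-min signal was scaled between DMSO/no-enzyme wells and ADEP (5.8 microM final).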
# Numbers without * were called inactive; ? = inconclusive; . = not tested or not shown; & = joins results of further samples; [ ] = dose if it differs, or a comment.
SMILES,TRPV1 PAM,Sfp inh,Menin MLL FP FL,gsp agonist,gsp antagonist,CtBP-E1A blk,ClpP mod
Nc1ccc(SCC(=O)Nc2cccc([N+](=O)[O-])c2)cc1,7,16%,-0.8,-1%[15.4 µM],-2%,-2,-2.3%
O=C(O)CSc1ccc(S(=O)(=O)N2CCCC2)cn1,5,.,.,23%,10%,.,-2.7%
CC(=O)N1CCN(c2ccc(NC(=O)c3cccc(Cl)c3Cl)cc2)CC1,-58,17%,0.0,-3%,6%,-17,.
COc1ccc(-c2[nH]ncc2/C=N/NC(=O)c2ccc(Br)cc2)c(OC)c1,25,11%,4.4,-3%[15.4 µM],2%,-18,-1.5%
COc1cccc(NC(=O)CN(C)C(=O)c2cc3c(s2)CCC3)c1,6,.,.,-11%,2%,0,-1.7%
Cc1ccc(NC(=O)NC2CCN(S(=O)(=O)c3ccc(F)cc3)CC2)cc1,2,13%,2.1,7%,-13%,5,-0.8%
Cc1ccc(N=C2N=C(N)c3ccccc32)cc1C,.,.,.,-70%[inhibitor],-10%,-6,0.3%
C=C(Br)Cn1c(CCCC)nc2ccccc21,-18,-10%,2.2,-7%,-4%,1,0.7%
CCc1ccc(NC(=O)C2CC(=O)N(C(C)C)C2)cc1 (stereo not given),-7,21%,-0.7,-3%,3%,6,0.8%
C[C@H](CO)N1C[C@H](C)[C@@H](CN(C)S(=O)(=O)c2cccs2)OCc2cn(nn2)CCCC1=O,.,.,.,-16%,.,7,-0.9%
CCN(CC)c1ccc(NC(=O)CN2CCN(CC(=O)Nc3ccccc3OC)CC2)cc1,-1,13%,0.5,-8%,-28%,.,3.1%&-0.6%
COc1cc(OC)cc(C(=O)Oc2ccc(/C=N/Nc3nc4ccccc4s3)cc2OC)c1,6,-19%,8.8,-11%,-3%,-13,3.1%
COc1ccc(Nc2ccc([N+](=O)[O-])c3nonc23)c(OC)c1,-2,-6%,4.8,-42%[inhibitor],?,-18,.
CCOC(=O)C1=C(C)NC2=C(C(=O)CC(c3cccs3)C2)C1c1cccs1 (stereo not given),?,2%,3.7,13%,10%,5,?
CCOC(=O)c1c(NC(=O)C2CC2)sc(C)c1CC,-15,?,15,0%,-9%,0,1.2%
CC(C)N1CCN(c2ccncc2S(=O)(=O)N2CCCCC2)CC1,.,.,.,?,.,-1,0.4%
Cc1cccc(OCC(=O)NCC(=O)N/N=C/c2ccc([N+](=O)[O-])cc2)c1,-1,15%,1.5,8%[15.4 µM],2%,5,.
C=CCn1c(SCC(=O)Nc2cc(C)on2)nnc1-c1ccccc1F,.,.,.,?,2%,2,.
O=c1[nH]nc(-c2cccs2)c2ccccc12,21,12%,0.5,21%,1%,-3,.
COc1ccc(N2CCN(C3CCCCC3NS(=O)(=O)c3ccc(Cl)cc3)CC2)cc1 (stereo not given),25,8%,.,10%,-19%,?,-1.3%
O=C(NC1c2ccccc2-c2ccccc21)c1ccco1,-2,-9%,-0.5,-46%[inhibitor],3%,5,3.4%
CC(=O)c1c(C(C)=O)c(C)n(-c2nc(-c3ccccc3)c(C)s2)c1C,19,-5%,7.4,6%,-7%,0,0.9%
COc1cc(/C=C/C(=O)OCC(=O)Nc2cc(S(=O)(=O)N3CCOCC3)ccc2Cl)cc(OC)c1OC,.,.,.,?,-5%,-16,.
CCC(NC(=O)NCc1cccnc1)(C(F)(F)F)C(F)(F)F,5,-1%,2.0,6%,10%,5,-0.5%
COC(=O)Cn1c2ccccc2c2nc(C)sc21,-3,14%,-9.6,10%,0%,-2,-0.3%
COc1ccc(/C=N/NC(=O)c2cc(C)on2)c2ccccc12,.,-4%,3.6,-9%,-1%,0,-3.8%
CCCCN(CCCC)CCCNC(=O)C12CN(Cc3ccccc3)CC1C(c1cccc([N+](=O)[O-])c1)=NO2 (stereo not given),22,-11%,2.8,.,4%,-9,3.0%
COc1cc2ccc3c(CCN(C)C)cc(OC)c(OC)c3c2cc1OC,?,5%,-4.6,-49%[inhibitor],6%,.,-29%
Cn1c(=O)cc(NCCc2ccccc2)[nH]c1=O,10,14%,0.8,8%,9%,4,-23%
Cc1cc(C(=O)COC(=O)c2ccc(Cl)c(S(N)(=O)=O)c2)c(C)n1CC1CCCO1 (stereo not given),-15,.,.,-2%,-9%,-1,0.4%
N#Cc1ccc(NCCc2ccccn2)c([N+](=O)[O-])c1,-3,-2%,1.2,-1%,4%,.,1.1%
CC1=CC2=NC(=O)/C(=C/c3coc4ccccc4c3=O)C(=N)N2O1,-15,-4%,?,41%[15.4 µM],-12%,-2,.
CN(C(=O)c1ccc(NC(=O)Cc2ccc(NC(=O)C3CCN(C(=O)c4ccccc4)CC3)cc2)cc1)C1CC1,-2,.,.,.,2%,-21,-3.8%
COC(=O)c1c(NC(=O)COc2ccc(Cl)cc2Cl)sc2c1CC(C)(C)NC2(C)C,-1,-6%,2.9,-1%,3%,-4,-16%
O=c1[nH]c(SCC2CCCCO2)nc2ccccc12 (stereo not given),-15,14%,-2.8,32%,8%,3,-5.3%
Cc1ccnc(NC(=O)c2c(O)c3ccccc3n(C)c2=O)c1,3,11%,2.5,.,.,.,.
C=CCn1c(Cn2nnc3ccccc32)nnc1SCC(=O)N/N=C/c1cc(Br)cc(OC)c1O,3,7%,6.4,?,-14%,-15,-2.9%
C=CCn1c(SCC(=O)NCC)nc2sc3c(c2c1=O)CCC3,-10,6%,.,2%,10%,-2,.
O=C(Nc1ccccc1)OCc1cnc(Cl)s1,-3,12%,-2.3,22%,7%,13,.
CC(C)(C)OC(=O)CNC(=O)c1[nH]cnc1C(=O)NC1CCNCC1,.,.,.,-4%,1%,0,-1.2%
Cc1ccc(S(=O)(=O)Nc2ccc3c(c2)n(C)c(=O)n3C)cc1,5,-3%,-2.1,-8%,-7%,1,-0.3%
CC1CC(C)CN(c2oc(Cc3ccccc3)nc2C#N)C1 (stereo not given),-9,-1%,0.1,-2%,-3%,?,-2.0%
CC(NC(=O)[C@H](C)NC(=O)C1CC(=O)N(c2ccc3c(c2)OCO3)C1)c1ccccc1 (stereo not given in full),-7,0%,-0.2,1%,6%,2,-0.8%
COc1ccc(C2=NOC(C(=O)NCCCN3CCOCC3)C2)cc1 (stereo not given),-6,10%,1.1,-45%[inhibitor],9%,-1,-0.8%
CS(=O)(=O)N(CC(=O)NCCSCc1ccccc1)c1ccccc1,-45,2%,-1.0,-14%,3%,-15,.
CCOc1ccc(-c2nnn(CC(=O)NCc3ccco3)n2)cc1OCC,1,-6%,-0.1,?,5%,0,-1.4%
Nc1c(Cl)cc(C2=NCCn3nc4cc([N+](=O)[O-])ccc4c32)cc1Cl,20,.,.,-20%,6%,.,-0.3%
CCOc1ncccc1C(=O)Nc1cc(S(=O)(=O)N2CCCCC2)ccc1OC,7,.,.,19%[15.4 µM],-7%,-22,.
COC(=O)c1nc(NC(C)=O)n[nH]1,-13,0%,-0.9,.,.,.,.
NCCCC[C@@H](C(=O)N1CCNCC1)n1cc(CCC(=O)O)nn1,?,?,-5.6,.,5%,3,-1.5%
O=C(c1cc(-c2cccc(O)c2)on1)N1CCCCCC1,5,8%,1.3,0%[15.4 µM],2%,-1,.
CC(C)N(C(=O)[C@H]1C[C@H](CC(=O)NCCN2CCOCC2)C(=O)N2CCc3c([nH]c4cc(-c5ccco5)ccc34)[C@]12C)C(C)C,.,.,.,.,6%,-14,3.9%
CCN(C(=O)CCc1nnc2ccc(N3CCC4(CC3)OCCO4)nn12)c1ccccc1,1,7%,4.4,17%,-9%,0,-4.3%
CC(=O)Nc1ccccc1C(=O)N1CCN(c2cccc(C)c2C)CC1,1,-9%,4.5,20%,14%,4,-0.8%
NC(=O)c1c(NC(=O)C2CCCO2)sc2c1CCCC2 (stereo not given),5,1.3µM*,0.8,-30%[inhibitor],4%,-7,-3.5%
CCC(CC)C(=O)NCCc1cc2ccc(C)c(C)c2[nH]c1=O,9,26%,1.6,.,.,.,.
O=C(c1ccc(CNS(=O)(=O)c2ccc(Br)cc2)cc1)N1CCCCCC1,21,8%,.,-20%,-8%,-1,0.5%
O=C(NCC1CCCO1)c1cc(-c2ccccc2)nc2ccccc12 (stereo not given),.,-3%,-1.7,?,-6%,-2,.
COc1ccc(OC)c(NC(=O)CN2C(=O)C3(OCCCO3)c3ccccc32)c1,-7,16%,1.0,20%,7%,-6,4.4%
CCN(C1CCCCC1)S(=O)(=O)c1cc2c3c(c1)CCN3C(=O)CC2,0,.,.,5%[15.4 µM],10%,-1,.
# (list continues)
SMILES,TRPV1 PAM,Sfp inh,Menin MLL FP FL,gsp agonist,gsp antagonist,CtBP-E1A blk,ClpP mod
C=C(C)CN1C(=O)C(C)SC1=NN=C1SCC(=O)N1C (stereo not given),.,.,.,?,.,0,-2.4%
CCCN1CCN(C(=O)CN2C(=O)COc3ccc(S(=O)(=O)N(CC)CC)cc32)CC1,8,9%,.,-2%,-3%,9,-1.5%
COc1ccc(CCc2nnc(CCC(=O)N(C)Cc3ccncc3C)o2)cc1,-1,15%,-0.1,-41%[inhibitor],0%,-1,-0.1%
O=C(Nc1ccc(C(=O)N2CCN(c3ccccc3F)CC2)cc1)C1=CSCCO1,-17,13%,.,4%,-18%,.,-2.2%
O/N=C1\CCCCc2ccccc21,-12,-7%,2.6,-5%,1%,-3,-2.1%
CN1CC2(C)OC(=O)C(Cl)=C2CC1c1ccccc1 (stereo not given),3,5%,0.1,-21%,5%,2,2.6%

# Compound activity: PubChem BioAssay, National Center for Advancing Translational Sciences (NCATS)
